High-throughput results: PubChem BioAssay, PCMD
Biofilm kill mix: clotrimazole potentiators killing C. albicans biofilm, primary screen, 4-compound mixtures. C. albicans biofilm persisters + clotrimazole, fluorescence viability; primary screen in compound mixtures of four per well. inhibition, % at 7.6 µM. hit rate 0.02% among 120,000. AID 1242, 2008;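 active = inhibition above 30.3% in the primary screen of four-compound pools, then above 30% when the compound was retested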;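 also: compounds exposed to preformed 24 h biofilms for 48 h; the number belongs to the whole pool; some results filed as inactive read as strong as hits; inactives centre near 12; 0% = biofilm with clotrimazole alone and 100% = kill control; retested singly at about 60 µM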
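Incubation: 24 h biofilm formation, then 48 h compound exposure, 37 °C | Material: C. albicans biofilms | Buffer or medium: RPMI/MOPS medium, pH 7.0 | Measured by: 2-h Alamar Blue fluorescence, 535/590 nm excitation/emission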
An asterisk follows results filed as active. A portion of the library (hit frequency here may not be typical).

SMILES	Biofilm kill mix
COc1ccc(N(CC(=O)NC2CCCC2)C(=O)CS(=O)CC(=O)Nc2ccc3c(c2)OCO3)cc1 (stereo not drawn)	11.0
O=C(CSc1nnc(CCCN2C(=O)c3cccc4cccc(c34)C2=O)n1-c1ccccc1)NCCCN1CCOCC1	11.2
C[N+]1(CC2COC3(CCCCC3)O2)CCCCC1 (stereo not drawn)	14.5
Cc1ccc(NC(=S)N2CCN(Cc3ccccc3)CC2)c(C)c1	10.9
CC(SCc1ccccc1)C(=O)Nc1ccc(F)cc1 (stereo not drawn)	-10.0
COc1cc(NC(=O)/C=C/c2ccccc2)c(C(=O)O)cc1OC	16.8
CCOc1cc(/C=N/NC(=O)NN(C)c2ncc(C(F)(F)F)cc2Cl)ccc1O	2.7
Cc1cc(OCC(=O)Nc2cnn(CCCC(=O)O)c2)ccc1[N+](=O)[O-]	11.6
CSc1ccccc1NC(=O)Cc1ccccc1[N+](=O)[O-]	9.9
CCOc1cc(N2CCOCC2)c(OCC)cc1NCC(=O)N1CCN(Cc2ccccc2)CC1	9.3
O=C(Nc1ccccc1C(=O)N1CCCCCC1)c1ccccc1	16.9
C/C(=N\Nc1nc2ccccc2s1)c1ccc2c(c1)OCO2	17.2
Cc1[nH]nc(SCC(=O)NCCc2ccccc2)c1[N+](=O)[O-]	21.0
CCN(CC)C(=O)C1CCCN(Cc2cccc(Oc3ccccc3)c2)C1 (stereo not drawn)	14.2
Nn1c(SCc2ccc(Br)cc2)nnc1-c1cccnc1	10.3
O=C1CN(C(=O)Cn2ncc(Cl)c(Cl)c2=O)c2ccccc2N1	15.3
CN1CCc2c(n(CC(O)CNCc3ccccc3)c3ccccc23)C1=O (stereo not drawn)	22.8
C=CCOC(=O)C1=C(C)NC(=S)NC1c1cccs1 (stereo not drawn)	8.4
CC(C)N(C(=O)Cn1cnc2cc([N+](=O)[O-])ccc2c1=O)C(C)C	-1.6
N#Cc1c(N)n(-c2ccccc2N)c2nc3ccccc3nc12	18.1
O=C(OCc1nnc(-c2ccc(Cl)cc2)o1)c1ccc(O)cc1	10.9
COc1ccc(/C=C/C(=O)OCC(=O)N2CC(=O)Nc3ccccc32)cc1	9.0
Cc1ccc(N(C(=O)c2ccn[nH]2)C(C(=O)NC2CCCC2)c2cccs2)cc1 (stereo not drawn)	8.5
COC(CNC(=O)CC1C(=O)N(Cc2ccccc2)C(C)c2nc3ccccc3n21)OC (stereo not drawn)	18.0
Clc1cccc(Nc2nc(-c3cccnc3)cs2)c1	21.1
COc1cc(/C=C/C(=O)Nc2ccc(N3CCCCC3)c(S(=O)(=O)Nc3ccccc3Cl)c2)cc(OC)c1OC	-14.6
CCn1ccnc1CN(C)Cc1nc(-c2ccc3c(c2)OCO3)no1	12.5
CC(NC(=S)NCCCN1CCOCC1)C12CC3CC(CC(C3)C1)C2 (stereo not drawn)	6.1
NC(=O)C1CCN(C(=O)/C=C/c2cc(Br)ccc2F)CC1	16.1
COc1ccc2c(C)cc(SCC(=O)Nc3ncc(Cl)cc3Cl)nc2c1	20.6
CCOC(=O)c1ccc(N=NN(C)C)cc1	24.2
CCOC(=O)c1c(NC(=O)COC(=O)c2cc(OC)c(OC)cc2[N+](=O)[O-])sc(C)c1CC	11.5
COc1ccc(-n2cc(CNCCc3ncc(C)[nH]3)c(-c3ccccc3Cl)n2)cc1	15.2
Cc1ccc(N/C(N)=N/c2nc(CSc3nnc(N)s3)cc(=O)[nH]2)cc1	22.8
Fc1ccc(C2=NNC(=NCc3ccccc3)SC2)cc1F	19.6
O=C(NC1CCCCC1)C(c1ccccn1)N(C(=O)c1csnn1)C1CCCCC1 (stereo not drawn)	24.7
Cc1nc(-c2ccccc2)cn(O)c1=O	31.1
c1ccc(-c2nnc(-c3ccccn3)c(-c3ccccn3)n2)nc1	25.1
CC(C)(C)OC(=O)N1CCC[C@H]1C(=O)N/N=C/c1cccc2cccnc12	17.4
O=C(COC(=O)c1cncc(Br)c1)Nc1ccc2c(c1)OCO2	8.7
O=C(NC(NC(=S)N1CCOCC1)C(Cl)(Cl)Cl)c1ccc(Cl)cc1 (stereo not drawn)	16.4
CSc1nnc(-c2cccc(NC(=O)c3ccccc3)c2)n1C	19.2
O=C(NCc1ccccc1Cl)NCc1ccccc1Cl	12.8
O=C(CNC(=O)C(c1ccccc1)c1ccccc1)N/N=C/c1ccc(O)c([N+](=O)[O-])c1	7.5
CCOC(=O)NC(=O)/C(C=Nc1ccc(Cl)c(Cl)c1Cl)=C(\C)O	15.3
CCOc1cc(S(=O)(=O)NCc2cccnc2)c(C)cc1C	7.1
COc1ccc2nc(NC(=O)C3CCCO3)sc2c1 (stereo not drawn)	6.0
Cc1ccc(Cl)cc1NC(=O)CCC(=O)O	20.6
CCC(CC)c1nc(C#N)c(NC(C)c2ccccc2)o1 (stereo not drawn)	13.3
Cc1cccc(C)c1-n1c(C)nn(CCOc2ccccc2)c1=O	-3.2
COc1ccc(C2CC(c3ccc(Br)cc3)=NN2C(=O)CN2CCCC2)cc1 (stereo not drawn)	22.3
O=C(NC1CCc2ccccc21)c1cc(COc2c(F)cccc2F)on1 (stereo not drawn)	-1.6
CCOc1cc(NC(=S)NCCCN2CCOCC2)c(OCC)cc1NC(=O)c1ccccc1	18.3
CCN(Cc1ccccc1)C(=O)c1nn(-c2ccc(OC)cc2)c(=O)c2c1c1ccccc1n2C	11.8
CN(C)c1cc(Nc2cccc(O)c2)c([N+](=O)[O-])c2nonc12	29.0
Cc1ccccc1C(=O)Nc1nnc(-c2ccc(C(C)(C)C)cc2)s1	17.3
Cc1nc2ccccc2n1/N=C/c1ccc([N+](=O)[O-])s1	9.4
CC(=O)Oc1ccc(N2C(=O)C3C4C=CC(C5CC45)C3C2=O)cc1[N+](=O)[O-] (stereo not drawn)	3.5
CCOC(=O)N1CCC(=C2c3ccc(Cl)cc3CCc3cccnc32)CC1	14.9
CC(NC(=O)c1ccccc1N)c1ccccc1 (stereo not drawn)	7.3
(next part)
SMILES	Biofilm kill mix
COc1cccc(-n2c([S-])c(C(=O)Nc3ccc(S(=O)(=O)N4CCOCC4)cc3)[n+]3cc(C(N)=O)ccc23)c1	5.2
Cc1ccccc1-c1noc(CCC(=O)NCc2ccco2)n1	21.3
Cc1cc(Nc2ccc3c(c2)OCCO3)c2cccc(C)c2n1	20.9
Cc1ccc(NC(=O)Cc2noc3ccccc23)nc1	19.8
Cc1ccccc1Cn1cc(NC(=O)c2nn(C)cc2Cl)cn1	14.0
Cc1cccc(N2C(=O)C(Oc3ccc(Cl)cc3Cl)C2C(=O)O)c1C (stereo not drawn)	17.9
COc1ccc([C@@H]2C[C@@H](c3ccccc3)Oc3cc(OC)c(OC)c(OC)c32)cc1	5.2
COc1ccc(C(CCN2CCCC(C)C2)c2c(OC)cc(OC)c3c2OC(=O)CC3c2cc(OC)c(OC)c(OC)c2)cc1 (stereo not drawn)	23.9
Cc1ccccc1NC(=O)c1ccc(COc2ccc3c(C)cc(=O)oc3c2)cc1	13.1
COCCN1C(=O)C(=O)/C(=C(/O)c2ccc(S(=O)(=O)N3CCOCC3)cc2)C1c1cccc(O)c1 (stereo not drawn)	-2.3
CCN1CCN(C(=O)CN2C(=O)c3cccc4cccc2c34)CC1	8.8
C/C(=N\NC(=O)Cc1c(C)[nH][nH]c1=O)c1ccc(Cl)c(Cl)c1	22.3
Cc1ccc(NS(=O)(=O)c2ccc(Cl)s2)cc1S(=O)(=O)N(C)C	8.7
COc1ccc(NC(=S)Nc2cccc3cnccc23)cc1	12.1
CC(=O)Nc1ccc(S(=O)(=O)Nc2nc3ccccc3nc2Nc2ccc(O)cc2)cc1	17.2
COc1ccc(CN2C(=O)CSC2c2ccncc2)cc1 (stereo not drawn)	13.6
CC(=O)c1ccc(NC(=S)Nc2cccc(S(=O)(=O)Nc3c(C)n(C)n(-c4ccccc4)c3=O)c2)cc1	11.6
S=C1SCN(Cc2cccnc2)CN1Cc1cccnc1	17.8
CC(/C=N/NC(=O)c1cc(-c2cccnc2)nc2c1c(C)nn2-c1ccccc1)=C\c1ccccc1	26.1
O=C(c1ccc(S(=O)(=O)Cc2cc(F)ccc2F)c([N+](=O)[O-])c1)N1CCCCC1	19.1
Cc1ccc(CS(=O)(=O)c2ccc(C(=O)N3CCCCC3)cc2[N+](=O)[O-])cc1	9.4
O=C(CO/N=C/c1ccc(OC(F)F)cc1)NC1CCCCC1	6.4
Fc1ccccc1NC(=S)N1CCN(Cc2ccccc2)CC1	22.1
Cc1cc(C)n(/C(=C\N(C)C)C(=O)c2ccc(Cl)cc2)n1	8.3
Cc1nn(-c2cc(N(S(C)(=O)=O)S(C)(=O)=O)c(Cl)cc2Cl)c(=O)n1C	11.7
COc1ccc(N(C(=O)CS(=O)CC(=O)Nc2ccc(F)cc2)C(C(=O)NC2CCCCC2)c2cccs2)cc1 (stereo not drawn)	7.9
Cc1cccc(N(CC(=O)NC2CCCCC2)C(=O)CCCC(=O)Nc2ccccn2)c1	16.4
CCc1ccc(CCC(=O)Nc2ccc(OC)cc2)o1	14.2
Cc1ccc(-c2cc(C(=O)NN)n[nH]2)o1	8.2
Cc1c(C(=O)N2CCC(C)CC2)cccc1[N+](=O)[O-]	10.1
CC(=O)Nc1ccc(C(=O)OCc2ccc(Cl)c(Cl)c2)cc1	10.0
O=C(OCc1cc([N+](=O)[O-])cc2c1OCOC2)c1ccc2ccccc2n1	6.7
O=[N+]([O-])c1ccc(NCc2ccc3c(c2)OCO3)cc1	14.3
CCNc1nc2cccnc2s1	15.5
Brc1ccc(-c2nnc(-c3ccccc3)o2)o1	13.5
COc1ccccc1S(=O)(=O)CC(O)COc1ccc(C#N)cc1 (stereo not drawn)	12.6
CCOC(=O)c1cc(-c2ccc(Cl)s2)[nH]n1	12.9
COc1ccc(/C=C/C(=O)NCCOc2ccccc2OC)cc1	8.7
O=C(c1ccc(Cl)c(S(=O)(=O)Nc2ccccc2C(=O)N2CCc3ccccc3C2)c1)N1CCc2ccccc2C1	11.2
Cc1ccc(C(=O)N2CCN=C2SCc2ccc([N+](=O)[O-])cc2)cc1C	11.4
COc1cc2c(cc1/C=C/C(=O)O)OC(C)C2 (stereo not drawn)	-8.2
Cc1ccc(N2C(=O)c3ccc(C(=O)N4CCN(c5cccc(C)c5C)CC4)cc3C2=O)cc1	-5.0
COc1ccc2nc(SCC(=O)NCCc3ccccc3)[nH]c2c1	15.0
CCO[C@@H]1OC(C(=O)O)=C[C@H](C2CC2)[C@H]1CCCO	9.8
CCCCCCCCCCCCC(NC(C)=O)(C(=O)OCC)C(=O)OCC	9.3
CC(C)CC(=O)Nc1ncc([N+](=O)[O-])s1	5.8
NC(=O)C1CCCN1 (stereo not drawn)	9.0
O=C(NC1CC1)C1CCN(C2CCN(C(=O)CC3=CCCCC3)CC2)CC1	10.6
COc1cccc2c3c(c(C)nc12)CCN3c1ccccc1	10.3
COc1ccc(C(=O)NCC(=O)OCC(=O)N(C)c2ccccc2)cc1	22.2
O=C1c2cccnc2C(O)N1Cc1ccc(F)cc1 (stereo not drawn)	16.7
Cn1cccc1-c1cc(C(=O)N/N=C/C=C/c2ccccc2)[nH]n1	6.8
O=C(CN(Cc1ccccc1)C(=O)CSc1nnc(COc2ccccc2)o1)NC1CCCC1	11.3
CCOC(=O)c1c(NC(C)=O)sc2c(OCC(O)CN(CC)CC)c(Br)ccc12 (stereo not drawn)	1.2
CNc1nc(Nc2ccc(Br)cc2)nc(N)c1[N+](=O)[O-]	9.2
O=[N+]([O-])c1ccccc1N/N=C/c1cccc(O)c1O	19.0
COC(=O)c1ccc(-n2c(C)cc(C(=O)CSc3cccc[n+]3[O-])c2C)cc1	9.5
C(=N\Nc1ccc2ccccc2n1)/c1ccc2c(c1)OCO2	5.9
Cc1ccccc1-n1sc2cc(F)ccc2c1=O	13.1
Fc1ccccc1N1CCN(c2nc(-c3cccs3)nc3ccccc23)CC1	15.3
The results go on.
SMILES	Biofilm kill mix
CC1(OC(=O)C2CCCC2)C(=O)C=C2C=C(c3ccsc3)N(CC3CC3)C=C2C1=O (stereo not drawn)	3.5
Cc1cc(C)cc(NC(=O)COc2ccc3c(C)c(Cc4ccccc4)c(=O)oc3c2)c1	3.8
CCOCC(=O)Nc1cc(C(=O)NCCc2ccccc2)ccc1Cl	23.1
COc1ccc(/C=N/S(=O)(=O)c2ccc(C)cc2)cc1	9.7
O=S(=O)(Nc1ncccn1)c1ccc(NC(=S)Nc2cccc(Cl)c2)cc1	6.1
CCSC1=NCCN1S(=O)(=O)c1ccc2ccccc2c1	13.6
Cc1ccc(S(=O)(=O)Nc2nc(N)n(-c3ccccc3)n2)cc1	19.1
O=C(CSc1nnnn1-c1ccccc1)NC1CCCc2ccccc21 (stereo not drawn)	4.6
Cc1ccc(N=C2S/C(=C\c3cn(CC(=O)O)c4ccccc34)C(=O)N2C)cc1	5.2
